Ecoli rRNA inh: selective bacterial rRNA inhibition in E. coli; AID 720706; GFP signal change (wild-type ribosome), % (concentration not given with the values); hit rate 1.6% among 350,000; E. coli WT GFP vs humanized-ribosome RFP mutants, fluorescence, 24 h; hits give low values; DMSO median 0, no signal -100;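 active = significant combined selectivity score with lowered wild-type GFP, culture density cut under 30%, mutant RFP and density less affected; inactive = any of these conditions unmet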; also: one replicate is shown; some compounds called inactive have numbers as strong as hits
HNF4A DNA FP: change in binding of human HNF4 alpha to DNA | activity change, % at 10 µM | hit rate 0.3% among 360,000 | P41235 | HNF4a-FITC DNA binding, fluorescence polarization, 1 h; in the data active = activity change above about 30%, passing the limit was not always enough;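 also: controls were the assay level and a saturating level of protein; the project sought stronger binding though the title names inhibitors; some compounds called inactive have numbers as strong as hits; positive values seem to mean higher polarization but the record does not say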
Target sequence (P41235 whole entry, looked up): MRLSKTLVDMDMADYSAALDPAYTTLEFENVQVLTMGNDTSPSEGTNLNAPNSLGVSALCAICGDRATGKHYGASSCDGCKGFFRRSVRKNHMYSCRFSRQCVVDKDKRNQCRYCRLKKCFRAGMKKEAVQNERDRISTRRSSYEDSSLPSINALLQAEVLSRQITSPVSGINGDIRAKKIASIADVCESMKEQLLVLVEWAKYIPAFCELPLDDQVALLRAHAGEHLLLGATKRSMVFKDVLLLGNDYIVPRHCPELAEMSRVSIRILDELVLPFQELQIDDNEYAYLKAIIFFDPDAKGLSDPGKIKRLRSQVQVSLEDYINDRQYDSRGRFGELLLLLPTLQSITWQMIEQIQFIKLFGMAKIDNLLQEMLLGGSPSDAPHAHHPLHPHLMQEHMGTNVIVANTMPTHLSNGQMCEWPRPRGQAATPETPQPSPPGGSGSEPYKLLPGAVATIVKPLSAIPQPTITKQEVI
ALR H2O2 inh: human ALR oxidase inhibition via reduced H2O2; AID 485317; P55789; inhibition, % (concentration not given with the values); purified ALR, DTT oxidation, H2O2 HRP-luminol luminescence; hit rate 3.8% among 290,000;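 active = mean and each replicate at 75% or more; inconclusive = only one of the two met; inactive = neither met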;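 also: stock transfer was 7.5 nL into about 7.5 µL; 0% = neutral wells and 100% = wells with inactivated enzyme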
Target sequence (P55789 whole entry, looked up): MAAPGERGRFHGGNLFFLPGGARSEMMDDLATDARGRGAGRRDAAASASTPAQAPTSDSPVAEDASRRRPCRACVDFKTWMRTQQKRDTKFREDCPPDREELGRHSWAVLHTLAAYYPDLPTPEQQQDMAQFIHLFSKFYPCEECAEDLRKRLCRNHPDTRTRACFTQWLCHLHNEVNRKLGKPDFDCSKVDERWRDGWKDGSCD
Vif A3G: inhibitors of Vif binding to APOBEC3G peptide, primary screen, biochemical, TR-FRET, GST-Vif 1-94, biotin-A3G peptide, dose response retest (AID 1117319); one-dose inhibition, %; IC50 in µM for titrated hits; TR-FRET GST-Vif / biotin-A3G peptide binding; higher % means a stronger effect; test concentration not given here; strong numbers were not always called active; hit rate 0.57% among 260,000;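 active = above the screen mean plus three standard deviations and confirmed in dose response; inconclusive = results disagree or hit not tested in dose response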;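 also: Vif residues 1-94 fused to GST binding biotinylated APOBEC3G peptide 110-148; 0% = full assay without inhibitor and 100% = GST in place of GST-Vif; retest series ran down from 100 µM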
E coli growth: inhibitors of Escherichia coli growth | OD600, 23 h; hits give low values | OD600 absorbance (concentration not given with the values) | hit rate 0.21% among 330,000;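 active = OD600 absorbance below the run mean of sample wells minus 3.6 SD, in any replicate, cut at about 0.56 in these data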;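 also: stock transfer was 300 nL into about 60 µL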
FGF22 binding: binders of recombinant human FGF22 by thermal shift; hit rate 1.5% among 340,000; calls only at 9.99 µM; SYPRO orange fluorescence; percent of sucrose octasulfate shift, DMSO zero; Q9HCT0;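 active = melting point raised past a set limit in the mean and every replicate; inconclusive = no clear call; three in four hits are not shown here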
Target sequence (Q9HCT0 whole entry, looked up): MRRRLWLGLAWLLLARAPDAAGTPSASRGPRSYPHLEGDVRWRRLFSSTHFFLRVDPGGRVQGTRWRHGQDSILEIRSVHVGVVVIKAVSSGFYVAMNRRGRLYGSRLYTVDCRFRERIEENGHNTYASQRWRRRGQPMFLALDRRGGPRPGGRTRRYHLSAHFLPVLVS
AF4-AF9 inh: inhibitors of human MLL-AF4/AF9 interaction. AlphaScreen, biotin-AF4 peptide binding to FLAG-AF9. inhibition, % at 10 µM. hit rate 0.47% among 350,000. AID 651704;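 active = every replicate reaching a set inhibition limit, whatever the replicate mean, cut at about 25% in these data; inconclusive = mean inhibition reaches that limit but some replicates miss it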;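 also: 0% = plate neutral control median and 100% = total signal loss; the record names both 10 and 1 µM as test concentration; the first replicate is given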
Ecoli rRNA inh OD600: also measured in Ecoli rRNA inh; calls as there; OD600 change, %; measured here: OD600 growth;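 optical density of the mix in the first replicate; 0 = DMSO median and -100 = no signal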
Ecoli rRNA inh RFP: recorded beside Ecoli rRNA inh, whose call it bears; RFP signal change, %; measured here: RFP humanized mutant strains;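 first replicate; 0 = DMSO median and -100 = no signal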
* hit, by the source's call; i = inactive; ? = inconclusive; / = no result given; & = joins results of further samples. Only part of the results is shown; the hit share may differ from the screen's.

Structure	ALR H2O2 inh	E coli growth	FGF22 binding	AF4-AF9 inh	Ecoli rRNA inh OD600	Ecoli rRNA inh RFP	Ecoli rRNA inh	Vif A3G	HNF4A DNA FP
Nc1nc(NC(=O)/C=C/c2ccc(F)cc2)nn1-c1ccccc1	-6.4	0.676	i	-0.2	/	/	/	-2.4%	2.5
C[C@@H]1CN([C@@H](C)CO)C(=O)c2cc(NC(=O)C3CCCCC3)ccc2O[C@@H]1CN(C)S(=O)(=O)c1cn(C)cn1	/	/	i	-1.3	0.2	-2.3	-0.3	/	/
C[C@H](CO)N1C[C@H](C)[C@@H](CN(C)Cc2ccc(-c3ccccc3)cc2)Oc2ccc(NS(=O)(=O)c3ccc(F)cc3)cc2C1=O	/	/	i	-0.5	-2.5	4.2	3.0	/	/
Cc1ccc(C(=O)N2C(=S)C(c3ccc(F)cc3)=NC23CCN(C)CC3)cc1	55.1	0.71	i	0.0	-6.5	4.7	3.8	/	-0.7
COCC(=O)NC[C@H]1[C@@H](c2ccc(C3=CCCC3)cc2)[C@H](CO)N1C(C)=O	/	/	i	-1.3	9.4	-0.9	1.0	/	/
O=C(COC(=O)c1cccc(Cl)c1Cl)NCCN1C(=O)CSC1=O	-4.3	0.677	i	-7.3	/	/	/	-10.7%	-4.1
Nc1ccccc1-n1c(=O)n(Cc2ccccc2F)c(=O)c2[nH]cnc21	-0.3	0.682	i	-5.3	4.8	-3.5	-4.8	-3.5%	-1.3
Cn1c(CS(=O)Cc2c(Cl)cccc2Cl)nnc1SCc1c(Cl)cccc1Cl (centres undefined)	-20.3	0.666	i	-1.8	-70.0	-10.6	-40.5	10.7%	-2.4
Fc1cccc(F)c1/C=C/c1ccc2ccccc2n1	-0.3	0.668	/	/	/	/	/	/	1.7
O=C(CCC(=O)N1CCN(c2ccccn2)CC1)c1cccs1	3.2	0.627	i	-0.1	/	/	/	7.7%	-2.6
O=S(=O)([O-])C(c1ccccc1)[n+]1ccccc1 (centres undefined)	1.3	0.759	i	-1.3	12.2	0.1	13.0	/	-0.3
CC1CN(C(=O)Cn2cc(S(=O)(=O)CC(=O)N(C)c3ccccc3)c3ccccc32)CC(C)O1 (centres undefined)	-0.3	0.681	i	0.6	-0.7	2.4	3.2	/	-1.6
Cc1ccc(CNC(=O)CCS(=O)(=O)c2cc3c(cc2Cl)NC(=O)CO3)cc1	-7.7	0.704	i	-6.1	8.2	1.6	7.1	-4.4%	0.3
CC(=O)Nc1ccc(NC(=O)C2Cc3c(-c4cccc(NC(C)=O)c4)ccnc3O2)cc1 (centres undefined)	/	/	i	-0.7	13.6	-1.0	2.5	/	-3.5
C[C@H]1CN([C@@H](C)CO)C(=O)c2cc(-c3ccccc3)cnc2O[C@@H]1CN(C)Cc1ccc(C(=O)O)cc1	/	/	i	-0.7	-4.4	-3.4	-6.4	/	/
O=C1C(Cl)=C(N2CCOCC2)C(=O)N1c1ccccc1	8.8	0.697	/	/	/	/	/	2.18µM*	3.9
CN1c2ccc(-c3cccc(F)c3)cc2[C@H]2[C@H](CCN2C(=O)C2CCOCC2)[C@H]1CO	/	/	i	4.8	-12.4	3.9	1.5	/	/
O=C(NC1CCCCC1)N[C@H]1CC[C@H](CC(=O)N2CCOCC2)O[C@@H]1CO	/	/	i	-1.8	3.5	-1.7	1.3	/	/
CC1(C)CC(CC(=O)O)C(=O)O1 (centres undefined)	-11.4	0.656	/	/	/	/	/	0.8%	-2.0
Cc1ccc([N+](=O)[O-])c(C)[n+]1C	-22.1	0.694	i	-0.3	17.6	-2.9	11.0	?	-0.4
CNC[C@H]1OCCCC[C@H](C)Oc2ccc(NS(=O)(=O)c3ccc(F)cc3)cc2C(=O)N([C@H](C)CO)C[C@H]1C	/	/	i	1.1	2.5	0.2	4.3	/	/
COc1ccc(CCNC(=S)N2CCN(S(=O)(=O)c3ccc(Cl)cc3)CC2)cc1	-0.1	0.73	i	-2.5	2.4	-1.8	1.5	/	3.2
COc1cccc(C(=O)O[C@@H]2[C@H](Cc3ccccc3)NS(=O)(=O)[C@H]3C[C@@H]4C=C[C@]23O4)c1	3.4	/	i	-1.1	5.7	7.4	3.9	/	-1.3
NC(=O)CSc1nnc(-c2cc3ccccc3o2)n1Cc1ccccc1	5.4	0.758	/	/	/	/	/	-22.7%	-1.4
CCCS(=O)(=O)c1nc(S(=O)(=O)c2ccc(C)cc2)c(N2CCCC2)s1	-8.7	0.728	/	/	/	/	/	-10.9%	-3.9
COCCN(C(=O)c1cc(CN2C(=O)c3ccccc3C2=O)ccc1OC)c1c(N)n(CC(C)C)c(=O)[nH]c1=O	/	0.673	i	-0.7	6.7	-0.9	4.9	/	-3.1
O=C(NCc1ccco1)c1ccc2sc([C@@H]3O[C@H](CO)[C@@H](O)[C@H]3O)nc2c1	/	/	i	0.7	9.0	-1.6	6.5	/	-3.0
COc1cccc(-n2cnc(=O)c3cccnc32)c1	-2.4	0.692	i	-2.0	16.0	1.3	5.6	-0.1%	-2.0
CCCNC(=O)N1C[C@@H]2[C@H](c3ccccc31)[C@H](CO)N2C(=O)Nc1ccccc1F	/	/	i	0.3	19.5	2.4	-4.9	/	/
O=C(C[C@@H]1CC[C@@H](NS(=O)(=O)c2ccc(F)cc2)[C@H](CO)O1)N1CCC(Cc2ccccc2)CC1	/	/	i	-5.6	-25.2	6.0	3.1	/	/
CN(Cc1ccccc1)C(=O)[C@@H]1CCCN1C(=O)OC(C)(C)C	/	/	i	-2.8	9.7	0.6	5.8	/	5.7
CCNC(=O)N(CC)C[C@H]1N[C@@](C)(C(=O)OC)[C@H]2C(=O)N(Cc3ccccc3)C(=O)[C@@H]12	/	0.703	i	-0.5	2.2	2.7	9.5	-1.1%	-1.6
COC(=O)C1=CC(C(=O)c2cccs2)=NN(c2ccc(OC)cc2)C1C(=O)OC (centres undefined)	-3.9	0.68	/	32.4*	-1.5	10.8	-4.5	22.8%	13.1
C[C@@H]1CCCCO[C@H](CN(C)S(C)(=O)=O)[C@@H](C)CN([C@H](C)CO)C(=O)c2cc(NS(=O)(=O)c3ccc(F)cc3)ccc2O1	/	/	i	-4.5	6.8	-1.2	-1.2	/	/
CC(C)NC(=O)Nc1ccc2c(c1)C(=O)N([C@@H](C)CO)C[C@H](C)[C@H](CN(C)Cc1ccc(-c3ccccc3)cc1)O2	/	/	i	-0.6	-4.5	1.6	0.0	/	/
C[C@@H]1CN([C@@H](C)CO)C(=O)c2ccccc2-c2ccccc2CO[C@H]1CN(C)CC1CC1	/	/	i	-3.1	6.4	-1.4	3.8	/	/
C[C@@H]1CCCCO[C@@H](CN(C)S(C)(=O)=O)[C@H](C)CN([C@@H](C)CO)C(=O)c2cc(NC(=O)Nc3ccccc3)ccc2O1	/	/	i	2.6	3.0	-2.0	-0.4	/	/
CC(Sc1nnc(-c2ccco2)o1)C(=O)NCCC1=CCCCC1 (centres undefined)	0.6	0.712	i	0.4	6.1	1.4	10.8	/	1.6
CSc1ccccc1C(=O)NCCSC(C)(C)C	-1.7	0.7	/	/	/	/	/	?	0.8
CC(C)(C)n1nnnc1C(c1cccs1)N(Cc1ccccc1)Cc1cccnc1 (centres undefined)	-4.6	0.728	/	/	/	/	/	8.3%	-0.9
CC(Oc1ccccc1)C(=O)OCC(=O)Nc1ccc2c(c1)OCO2 (centres undefined)	-6.2	0.683	i	-2.1	6.4	-0.4	2.4	1.1%	2.6
O=c1[nH]c(Cc2ccccc2)nc2c1oc1ccccc12	-4.2	0.698	/	-6.6	/	/	/	8.5%	4.1
COc1ccccc1-c1ccc2c(c1)O[C@@H](CN(C)C(=O)Nc1cccc(F)c1)[C@H](C)CN([C@H](C)CO)S2(=O)=O	/	/	i	0.1&1.4&2.5	-13.2&-17.6	8.5&4.9	-6.0&-1.9	6.5%	3.7
CCOC(=O)C(CC)Sc1ncnc2c1nnn2-c1ccc(F)cc1 (centres undefined)	2.4	0.748	/	/	/	/	/	-1.7%	-0.6
Cn1c(SCC(=O)Nc2ccc(NC(=O)c3cccs3)cc2)nnc1-c1ccncc1	/	0.834	/	/	/	/	/	3.8%	-4.8
COc1ccc(-c2noc(CNC(=O)c3ccoc3C)n2)cc1OC	-34.3	0.644	i	-0.7	-13.2	47.8	0.9	/	-0.9
C[C@@H]1CN([C@@H](C)CO)S(=O)(=O)c2ccc(-c3ccccc3)cc2O[C@H]1CN(C)C(=O)Cc1ccccc1	/	/	i	2.3	-35.7	-0.3	-6.7	/	/
COc1nccnc1NS(=O)(=O)c1ccc(NC(=O)c2ccccc2Br)cc1	-1.6	0.682	i	-0.2	-17.1	-3.5	-7.5	/	5.9
CC(=O)N1c2ccc(S(=O)(=O)NCCC(=O)N3CCC(C)CC3)cc2CC1C (centres undefined)	-1.5	0.611	i	0.2	1.9	-1.3	6.3	3.8%	1.8
COc1cc(/C=C/C(=O)OCC(=O)Nc2cccc(Oc3ccccc3)c2)ccc1O	-5.4	0.674	i	-4.3	-60.0	7.2	-37.6	/	-1.0
CCOc1ccc(NC(=O)CN(C)C(=O)Cc2sc(C)nc2-c2ccc(F)cc2)cc1OCC	-2.1	0.678	i	-0.7	/	/	/	-2.0%	2.1
CCCN(CC(=O)Nc1ccc(C(N)=O)cc1)CC(=O)Nc1ccc(Cl)cc1Cl	13.3	0.677	i	-27.5	4.7	-2.9	6.4	/	2.8
C[C@@H]1CN([C@H](C)CO)C(=O)Cc2cc(NS(=O)(=O)c3cn(C)cn3)ccc2O[C@@H]1CN(C)Cc1ccc(C(=O)Nc2ccccc2N)cc1	/	/	i	4.1	-2.7	-0.8	2.2	/	/
Cc1noc(C)c1NC(=O)N(C)C[C@H]1Oc2c(cccc2N(C)C)C(=O)N([C@H](C)CO)C[C@@H]1C	/	/	i	-12.9	-0.3	-0.8	1.7	/	0.4
NC(N)=Nc1nc(CCN2C(=O)c3ccccc3C2=O)cs1	46.4	0.709	/	/	/	/	/	-1.2%	-0.9
COc1ccccc1CN1C[C@H](C)[C@@H](OC)CN(C)C(=O)c2ccc(NC(C)=O)cc2OC[C@H]1C	/	/	i	3.1	3.5	-3.5	0.9	/	/
CCCn1c(=O)[nH]c(=O)c2c(C(=O)OCC)cc(-c3cccs3)nc21	-23.4	0.74	i	-2.6	-4.1	2.8	10.2	-26.1%	5.3
Cc1nc(SCC(=O)NC(=O)NCc2ccco2)nc(C)c1C	/	0.715	i	-0.4	2.3	-0.2	5.0	2.4%	0.8
O=C(CSc1nnc(C2CC2)n1Cc1ccccc1)c1ccc(S(=O)(=O)N2CCOCC2)cc1	/	0.72	/	/	/	/	/	25.7%	3.1
Cc1ccc(C(=O)N2CCC(n3nccc3NC(=O)C3CCOC3)CC2)cc1 (centres undefined)	-4.1	0.705	i	0.2	13.3	-0.7	6.6	/	1.5
CC1(c2ccccc2)NC(=O)N(CC(=O)NCCN2C(=O)S/C(=C\c3cccnc3)C2=O)C1=O (centres undefined)	/	0.69	i	-0.6	-1.1	0.5	3.6	/	1.5
